NPYLR7 agonist: activates Aedes aegypti NPYLR7 receptor | HEK293T NPYLR7/Galpha15, GCaMP6s calcium fluorescence | activation, % at 10 µM | actives 0.15% (n = 270,000); in the data active means activation above about 40%;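 further: 0% = vehicle and 100% = reference agonist at the receptor; some compounds past the cut are filed as inactive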
NPYLR7 agonist max-min: further read-out of NPYLR7 agonist, marked with its call; activation, %; measured here: Max-Min RFU normalised activation; some inactives read as strong as hits;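 span of the calcium signal over five minutes; 0% = vehicle and 100% = native peptide agonist; compound fluorescence can raise it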
Numbers without * were called inactive; & = joins results of further samples.

Results follow in this order: NPYLR7 agonist | NPYLR7 agonist max-min
1: CC(C)Oc1nc(-c2ccc(C(F)(F)F)cc2)n(-c2ccc(NC(=O)c3cc(Cl)cc(Cl)c3)cc2)n1
  25 | 23
2: Cc1ccc(-c2cnn3c(N4CC(C)CC(C)C4)cc(C)nc23)cc1 (stereo not drawn)
  -6 | -7
3: Cc1cccc(COC2CCCN(C(=O)c3ccccc3F)C2)c1 (stereo not drawn)
  5 | 9
4: CN(Cc1noc(-c2ccccc2)n1)C(=O)c1cn(Cc2ccc(F)cc2)nn1
  -8 | -11
5: CC(C)(C)CNC(=O)CN1Cc2ccc(-c3ccc(C#N)cc3)nc2C1=O
  11 | 23
6: CCCn1c(SCc2cn3c(C)cc(C)nc3n2)n[nH]c1=O
  5 | 2
7: CCC(=O)N1CCC1(C)C(=O)Nc1ccc2c(c1)CCN2C(C)=O (stereo not drawn)
  4 | 2
8: O=C(Nc1ccc(Oc2ccccc2F)cc1)C1CCN(Cc2cccc3c2OCO3)CC1
  1&8 | -2&0
9: N#CC(=Cc1ccsc1)C(=O)Nc1ccccn1
  -1 | 4
10: FC(F)(F)COc1cccc(CN2CCN(CC3CCOC3)CC2)c1 (stereo not drawn)
  4 | 1
11: Cc1cc(C)n(-c2cccc(CNC(C)c3cnn(-c4cccc(F)c4)c3C)c2)n1 (stereo not drawn)
  7 | 2
12: Cc1ccc2[nH]c3c(=O)n(C(C)c4ccccc4)cnc3c2c1 (stereo not drawn)
  -2 | -9
13: COCCCN1CCc2nc(SCC(=O)Nc3ccc(C)c(C)c3)[nH]c(=O)c2C1
  8 | 10
14: COc1ccc(CC(=O)N2CCC3(CC2)OCc2cc(-c4ccccc4)ccc2O3)cc1
  -7 | -16
15: CC1(C)CN(C(=O)Cn2cnc3ccc(F)cc3c2=O)CC1c1ccccc1 (stereo not drawn)
  1 | 0

From no. 1 to 4, copied from above:
Results follow in this order: NPYLR7 agonist | NPYLR7 agonist max-min
1: CC(C)Oc1nc(-c2ccc(C(F)(F)F)cc2)n(-c2ccc(NC(=O)c3cc(Cl)cc(Cl)c3)cc2)n1
  25 | 23
2: Cc1ccc(-c2cnn3c(N4CC(C)CC(C)C4)cc(C)nc23)cc1 (stereo not drawn)
  -6 | -7
3: Cc1cccc(COC2CCCN(C(=O)c3ccccc3F)C2)c1 (stereo not drawn)
  5 | 9
4: CN(Cc1noc(-c2ccccc2)n1)C(=O)c1cn(Cc2ccc(F)cc2)nn1
  -8 | -11

Next entries
Results follow in this order: NPYLR7 agonist | NPYLR7 agonist max-min
16: O=C1C[C@H]2CC[C@@H](CN1)N2C(=O)Cn1nnc(-c2ccc(F)cc2)n1
  -1 | -2
17: Oc1oc(-c2ccc(Cl)cc2)nc1C=Nc1cc(Cl)ccc1Cl
  -3 | -11
18: N#Cc1c(NC(=O)COc2ccc(Cl)cc2Cl)sc2c1CCCC2
  -5 | -9
19: COCCCNC(=O)c1csc(CSc2nnc(-c3cccnc3)n2-c2cccc(Cl)c2)n1
  -3 | 9
20: CCc1nc2c(OCC3CCCCC3)cccn2c1N(C)C(=O)c1ccc2c(c1)OCO2
  -20 | 8
21: Fc1ccc(C2c3cccn3CCCN2Cc2cccnc2)c(F)c1 (stereo not drawn)
  5 | 4
22: Nc1nnc(CCCNC(=O)CN2CCOc3ccccc3C2)s1
  -5 | -9
23: CCn1c(=O)c2c(nc3n2CC(C)CN3c2ccc(Br)cc2)n(C)c1=O (stereo not drawn)
  22 | 12
24: Brc1ccc(C=C2CCC(C3=CCCC3)=C2N2CCOCC2)cc1
  -1 | -1
25: COC(=O)c1cc2c(=O)n(C)c(=O)n(C)c2[nH]1
  2 | -1
26: COc1ccc(CCC(=O)Nc2c3c(nn2CC(=O)NCc2ccco2)CSC3)cc1
  -5 | 2
27: O=C(Nc1ccc(F)c(F)c1)N1CCSC1c1cccc(OCc2ccccc2)c1 (stereo not drawn)
  0 | 2
28: Nc1c(C(=O)CSc2cc(F)ccc2F)c(=O)[nH]c(=O)n1C1CC1
  2 | 1
29: CC(C)CN(C(=O)c1cccc(-n2cccc2)c1)C1CCS(=O)(=O)C1 (stereo not drawn)
  1 | 1
30: CCc1[nH]n(-c2ccc(Cl)c(Cl)c2)c(=O)c1C1=C(N(CC)CC)C(=O)N(c2ccc(F)cc2)C1=O
  -9 | -9
31: CC(=O)Cn1c(=O)c2c(nc3n2CCCN3c2ccc(Br)cc2)n(C)c1=O
  1 | -3
32: COc1cccc(-c2nn(-c3ccccc3)cc2CN2CCN(C)C(=O)[C@@H]2C)c1
  6 | 2
33: COc1nn(Cc2ccc(Br)cc2)cc1[N+](=O)[O-]
  2 | 3
34: CC(C)NC(=O)NC1CCN(c2ccccc2C(=O)N(C)C2CCCCC2)CC1
  1 | 14
35: CC(Cn1ccnc1)NC(=O)NCC(C)(C)c1ccccc1F (stereo not drawn)
  0 | 2
36: CC(C)(C)CC(C)(C)Nc1c(-c2cccnc2)nc2c(OCc3ccccc3)cccn12
  7 | 22
37: C=CCN(CC(=O)N1CCc2sccc2C1COc1cccc(OC)c1)C(=O)Nc1ccc(C)cc1 (stereo not drawn)
  3 | 3
38: O=C(NCc1ccc(OC(F)(F)F)cc1)N1CCN(S(=O)(=O)c2ccc(Cl)s2)CC1
  7 | 6
39: O=C(Cn1cnc([N+](=O)[O-])n1)N/N=C\c1ccccc1OCc1ccccc1
  -9 | -14
40: C=CCN1C(=O)NC(c2ccccc2C(F)(F)F)C2=C1CN(C(C(=O)Nc1ccc(OC)cc1)c1ccccc1)C2=O (stereo not drawn)
  0 | 10
41: CCc1cn[nH]c1C1CCN(C(=O)Cc2ccc3c(c2)NC(=O)CO3)CC1
  2 | 1
42: COc1ccc(-c2cc(N)n(-c3ccc(C(=O)NCCCN(C)c4ccccc4)cc3)n2)cc1
  -4 | -8
43: Cc1cccc(C)c1Oc1ncccc1CNC1CCN(C)CC1
  6 | 3
44: O=C(CC1(O)C(=O)Nc2ccccc21)CC1(O)C(=O)Nc2ccccc21 (stereo not drawn)
  -3 | -6
45: COc1ccc(C(NC(C)=O)c2ccccc2Cl)cc1 (stereo not drawn)
  -3 | -3
46: CC(C)c1ncc(C(=O)N2CCNCC2C(=O)N2CCCC2)c(=O)[nH]1 (stereo not drawn)
  -4 | -9
47: CCN1CC(Cn2ccnc2-c2cccc3nonc23)CC1=O (stereo not drawn)
  -3 | -4
48: CC(C)CN1CC(C(=O)N(C2CCCC2)C2CC2)CC1=O (stereo not drawn)
  3 | 0
49: COc1ccc(C(=O)NCCCNC(=O)[C@H]2CCCN2C(=O)Cc2cccs2)cc1
  2 | 8
50: Cc1ccc(O)c(N=Cc2c(O)n(C3CCCCC3)c(=O)n(C3CCCCC3)c2=O)c1
  4 | 1
51: CCOc1ccc(C(=O)Nc2c(N)nc(SCc3ccc(C)cc3)[nH]c2=O)cc1
  10 | 7
52: O=C(c1ccc2nc(C3CC3)oc2c1)N1CCCC(c2ccc(Cl)cc2)C1 (stereo not drawn)
  5 | -1
53: COc1ccc(S(=O)(=O)Oc2ccccc2CN(C(=O)c2ccco2)C2CC2)cc1
  0 | 9
54: O=C(Nc1nc(-c2ccc(I)cc2)cs1)c1ccc(F)cc1
  -2 | -9
55: O=c1c2cc(Cl)ccc2ncn1Cc1cnn(-c2ccccc2)n1
  -2 | -4
56: COCc1cc(N2CCN(c3cccc(C(F)(F)F)c3)CC2)nc(SCc2ccc(C(=O)NCc3cccnc3)cc2)n1
  10 | 9
57: CC1CN(S(=O)(=O)c2ccc(C(=O)N3CCN(c4ccc(O)cc4)CC3)cc2)CC(C)O1 (stereo not drawn)
  3 | 1
58: Cc1nc(SCC(=O)N(C)Cc2cccc(F)c2)sc1CC(N)=O
  10 | 5
59: Cc1cc(C)c(C)c(S(=O)(=O)NC(C)C(=O)N2CCC2)c1C (stereo not drawn)
  20 | 21
60: C=C1CC[C@H](O)C/C1=C/C=C1\CCC[C@]2(C)[C@@H]([C@H](C)CCCC(C)(C)O)CC[C@@H]12
  3 | 4

Compounds above that have a cyano group, in the order listed:
Results follow in this order: NPYLR7 agonist | NPYLR7 agonist max-min
5: CC(C)(C)CNC(=O)CN1Cc2ccc(-c3ccc(C#N)cc3)nc2C1=O
  11 | 23
9: N#CC(=Cc1ccsc1)C(=O)Nc1ccccn1
  -1 | 4
18: N#Cc1c(NC(=O)COc2ccc(Cl)cc2Cl)sc2c1CCCC2
  -5 | -9

Further structures follow.
Results follow in this order: NPYLR7 agonist | NPYLR7 agonist max-min
61: CCC(=O)N1CCC1(C)C(=O)Nc1cc(-c2ccccc2)nn1C (stereo not drawn)
  5 | 0
62: C=CCNC(=O)C(NC(=O)c1ccc2c(c1)OCO2)C1CCN(C(=O)c2ccc(F)cc2)CC1 (stereo not drawn)
  -7 | 8
63: COc1ccc(CCOc2nc(-c3ccc(Cl)c(Cl)c3)n(-c3cccc(NC(=O)c4ccc(C(F)(F)F)cc4)c3)n2)cc1
  12 | 7
64: Nc1nc(NC2CC2)cc(-c2ccccc2CN2CCOCC2)n1
  7 | 4
65: COc1cccc(-c2nnc(SCC(=O)N3CCN(C(=O)c4ccc(Br)cc4)C(C)C3)n2-c2ccccc2)c1 (stereo not drawn)
  -13 | -5
66: O=C(NCc1nnnn1C1CCCCC1)Nc1ccc2c(c1)OCO2
  5 | 2
67: CC(=O)Nc1ccc(NC(=O)CC(NCC(C)C)C(=O)O)cc1 (stereo not drawn)
  -11 | -9
68: CCn1c(SCC(=O)NC(=O)c2cccn2C)nnc1-c1ccco1
  2 | 13
69: CCCCCCC1(C)NC(=O)N(CC(=O)NCCc2ccccc2)C1=O (stereo not drawn)
  -3 | -6
70: Cc1cccc(C)c1NC(=O)CN(C)C(=O)COC(=O)c1cnn(C)c1
  -4 | -4
71: CC(=O)c1ccc(NC(=O)CCn2nc(-c3cccs3)oc2=O)cc1
  13 | 19
72: O=C(Nc1cc(Cl)ccc1O)C1CCN(C(=O)C2CC2c2ccccc2Cl)CC1 (stereo not drawn)
  -2 | -1
73: CCOCCn1cc(C2CCN(C(=O)c3cc(C(F)(F)F)cc(C(F)(F)F)c3)CC2)c2ccccc21
  18 | 8
74: COc1ccc(Oc2cnn(-c3ccc(F)cc3)c(=O)c2Nc2cccc(C(=O)N3CCOCC3)c2)cc1
  8 | 5
75: O=C(NCCC1=CCCCC1)c1c(O)nc2sccn2c1=O
  -1 | 10
76: CCOC(=O)C1CCN(C(=O)C2CC(=O)N(N(C)c3ccccc3)C2)CC1 (stereo not drawn)
  -4 | -3
77: CCOC(=O)c1ccccc1NC(=O)CSc1nc2c(-c3ccccc3)c[nH]c2c(=O)n1C(C)C
  -1 | -3
78: Cc1ccc(S(=O)(=O)c2cnc(SCC(=O)Nc3ccccc3C(F)(F)F)[nH]c2=O)cc1
  0 | 0
79: O=C(O)CCC(=O)Nc1nccs1
  4 | 3
80: Cn1cnnc1Sc1ccc(C(=O)Nc2ccc3c(c2)OCCCO3)cc1[N+](=O)[O-]
  1 | 0
81: COc1ccc(NC(=O)N2CCN(c3cc(Oc4ccccc4Cl)ncn3)CC2C)cc1 (stereo not drawn)
  12 | 15
82: CC(=O)c1cc2c(cc1NC(=O)Cn1nc(C(F)(F)F)c(Br)c1C)OCO2
  1 | -1
83: O=C(NCCc1c[nH]c2ccccc12)C(=O)c1ccc(C2CCCCC2)cc1
  -5 | -11
84: O=C1c2ccccc2C(=O)N1c1nc(-c2cccc3ccccc23)cs1
  1 | 6
85: COCCN1CCN(C(=O)c2cc(Cn3ccc4ccccc43)[nH]n2)CC1
  0 | 0
86: COc1cccc(CNC(=O)C2CCN(C(=O)[C@H](C)NC(=O)Nc3c(Br)cc(C(C)C)cc3Br)CC2)c1
  1 | 6
87: Cc1ccc(O)c(NC(=O)c2cccc(S(=O)(=O)N3CCCC3)c2)c1
  -6 | -11
88: CCCc1[nH]n(C(C)(C)C)c(=O)c1C1=C(N(C)C2CCCCC2)C(=O)N(CCOC)C1=O
  1 | 11
89: CCCCN(Cc1cccn1Cc1ccc(Br)cc1)C(=O)CN(CCOC)C(=O)c1ccccc1OC
  -5 | 4
90: O=S(=O)(NC1CCCc2ccccc21)c1c(F)cc(F)cc1Br (stereo not drawn)
  7 | 4
91: Cc1ccc2c(c1)c(CNC1CCC3(CCNCC3)CC1)nn2C
  7 | 1
92: CNC(=O)c1ccc(=O)n(Cc2csc(-c3ccc(C(C)C)cc3)n2)c1
  11 | 8
93: CCNC(=O)[C@@H]1C[C@H](n2cc(-c3cccnc3)nn2)CN1
  1 | -1
94: CN1CCN(c2nc3c(c(=O)[nH]c(=O)n3C)n2Cc2cccc3ccccc23)CC1
  -1 | 70
95: CCOC(=O)C1CCCN(C(=O)c2ccc(CSc3nc(CC)cc(N4CCN(c5ccccc5Cl)CC4)n3)cc2)C1 (stereo not drawn)
  10 | 7
96: COc1ncnc(N(C)C)c1NC(=O)CCc1cccc(Cl)c1Cl
  3 | 2
97: C=CCOCC(O)CN(CCOC)Cc1c(-c2ccccc2)nn(C)c1Oc1ccccc1Cl (stereo not drawn)
  12 | 9
98: Cc1c(C#N)c(NC(=O)CN2CCC(O)CC2)n(-c2ccc(F)cc2)c1C
  4 | 2
99: COC(=O)c1sc(N2C(=O)C(O)=C(C(=O)c3ccc(C)o3)C2c2ccc(OC)c(OC)c2)nc1C (stereo not drawn)
  3 | 1
100: O=C1CCCCN1CCn1ccnc1-c1ccccc1-c1ccco1
  7 | 0
101: C=CCN(Cc1csc(COc2c(OC)cccc2OC)n1)S(=O)(=O)c1ccc(C)cc1
  18 | 29
102: CC1=C(C(=O)N2CCc3c(c(C(=O)N4CCCCC4)nn3CCCc3cccnc3)C2)OCCO1
  19 | 10
103: CCC(CC)(CO)NC(=O)Nc1cccnc1C
  -5 | -7
104: CCN(CC)S(=O)(=O)c1ccc2c(c1)nc(SC(C)C#N)n2Cc1ccco1 (stereo not drawn)
  2 | -2
105: CCOC(=O)Cn1c(C)cn2c3c(=O)[nH]c(=O)n(C)c3nc12
  15 | 8

Assay outcomes from PubChem.

Not all compounds are listed. The share of hits here may be higher or lower than overall.
